Source: PubChem (several laboratories)
ALR H2O2 inh = human ALR oxidase inhibition via reduced H2O2. P55789. purified ALR, DTT oxidation, H2O2 HRP-luminol luminescence. inhibition, % (no concentration beside the values). actives 3.8% (n = 290,000). AID 485317;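 active = mean and each replicate at 75% or more; inconclusive = only one of the two met; inactive = neither met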;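 note: stock transfer was 7.5 nL into about 7.5 µL; 0% = neutral wells and 100% = wells with inactivated enzyme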
Target sequence (P55789 whole entry, looked up): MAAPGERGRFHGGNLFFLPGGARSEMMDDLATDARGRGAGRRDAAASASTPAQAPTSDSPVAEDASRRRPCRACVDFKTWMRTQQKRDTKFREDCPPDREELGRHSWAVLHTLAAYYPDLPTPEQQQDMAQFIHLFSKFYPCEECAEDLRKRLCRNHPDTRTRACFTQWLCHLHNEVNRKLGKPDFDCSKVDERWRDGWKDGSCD
MLL AF4-AF9 inh = MLL-AF4/AF9 protein interaction inhibition | AlphaScreen, biotin-AF4 peptide binding to FLAG-AF9 | inhibition, % at 10 µM | AID 651704 | P42568 | actives 0.47% (n = 350,000);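 active = every replicate reaching a set inhibition limit, whatever the replicate mean, cut at about 25% in these data; inconclusive = mean inhibition reaches that limit but some replicates miss it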;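 note: 0% = plate neutral control median and 100% = total signal loss; the record names both 10 and 1 µM as test concentration; the first replicate is given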
Target sequence (P42568 whole entry, looked up): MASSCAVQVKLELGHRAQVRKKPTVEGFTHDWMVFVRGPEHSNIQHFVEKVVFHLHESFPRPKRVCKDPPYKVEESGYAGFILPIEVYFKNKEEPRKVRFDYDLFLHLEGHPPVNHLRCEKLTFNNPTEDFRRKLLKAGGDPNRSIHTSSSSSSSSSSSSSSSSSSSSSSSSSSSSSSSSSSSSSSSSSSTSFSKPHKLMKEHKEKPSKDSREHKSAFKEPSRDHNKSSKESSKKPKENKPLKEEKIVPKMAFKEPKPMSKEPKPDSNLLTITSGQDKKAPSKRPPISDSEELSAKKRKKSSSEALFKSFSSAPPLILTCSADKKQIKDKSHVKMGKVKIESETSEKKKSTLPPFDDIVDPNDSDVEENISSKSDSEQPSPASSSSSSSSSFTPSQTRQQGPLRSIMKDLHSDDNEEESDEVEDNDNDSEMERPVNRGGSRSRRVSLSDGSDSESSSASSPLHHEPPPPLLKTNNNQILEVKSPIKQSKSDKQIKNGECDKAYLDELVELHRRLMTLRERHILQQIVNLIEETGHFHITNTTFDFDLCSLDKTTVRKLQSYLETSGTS
E coli growth = inhibitors of Escherichia coli growth. OD600, 23 h; stronger effect = lower value. OD600 absorbance (concentration not given with the values). actives 0.21% (n = 330,000). AID 1053175;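 active = OD600 absorbance below the run mean of sample wells minus 3.6 SD, in any replicate, cut at about 0.56 in these data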;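 note: stock transfer was 300 nL into about 60 µL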
FGF22 binding = FGF22 (human) thermal shift binding | Q9HCT0 | recombinant FGF22 thermal shift, SYPRO orange fluorescence; percent of sucrose octasulfate shift, DMSO zero | calls only at 9.99 µM | actives 1.5% (n = 340,000);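 active = melting point raised past a set limit in the mean and every replicate; inconclusive = no clear call; three in four hits are not shown here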
Target sequence (Q9HCT0 whole entry, looked up): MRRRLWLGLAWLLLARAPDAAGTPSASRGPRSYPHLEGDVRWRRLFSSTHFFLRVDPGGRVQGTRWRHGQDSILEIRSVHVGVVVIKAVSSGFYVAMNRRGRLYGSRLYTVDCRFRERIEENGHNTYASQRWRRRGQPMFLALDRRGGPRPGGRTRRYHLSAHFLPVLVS
rRNA inh HTS = inhibits bacterial ribosomal RNA function over humanized ribosomes; E. coli WT GFP vs humanized-ribosome RFP mutants, fluorescence, 24 h; stronger effect = lower value; DMSO median 0, no signal -100; GFP signal change (wild-type ribosome), % (no concentration beside the values); actives 1.6% (n = 350,000);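 active = significant combined selectivity score with lowered wild-type GFP, culture density cut under 30%, mutant RFP and density less affected; inactive = any of these conditions unmet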; note: one replicate is shown; some compounds called inactive have numbers as strong as hits
Vif A3G = inhibitors of Vif binding to APOBEC3G peptide, primary screen, biochemical, TR-FRET, GST-Vif 1-94, biotin-A3G peptide, dose response retest (AID 1117319). TR-FRET GST-Vif / biotin-A3G peptide binding; higher % means a stronger effect; test concentration not given here; strong numbers were not always called active. inhibition, %, or IC50 in µM where a hit was titrated. actives 0.57% (n = 260,000);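 active = above the screen mean plus three standard deviations and confirmed in dose response; inconclusive = results disagree or hit not tested in dose response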;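 note: Vif residues 1-94 fused to GST binding biotinylated APOBEC3G peptide 110-148; 0% = full assay without inhibitor and 100% = GST in place of GST-Vif; retest series ran down from 100 µM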
HNF4A DNA FP = change in binding of human HNF4 alpha to DNA. P41235. HNF4a-FITC DNA binding, fluorescence polarization, 1 h. activity change, % at 10 µM. actives 0.3% (n = 360,000). AID 1224865; in the data active = activity change above about 30%, passing the limit was not always enough;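 note: controls were the assay level and a saturating level of protein; the project sought stronger binding though the title names inhibitors; some compounds called inactive have numbers as strong as hits; positive values seem to mean higher polarization but the record does not say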
rRNA inh HTS OD600 = second read-out of rRNA inh HTS, no call of its own (marks repeat the call); OD600 change, %; measured here: OD600 growth;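 optical density of the mix in the first replicate; 0 = DMSO median and -100 = no signal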
rRNA inh HTS RFP = recorded beside rRNA inh HTS, whose call it bears; RFP signal change, %; measured here: RFP humanized mutant strains;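 first replicate; 0 = DMSO median and -100 = no signal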
Numbers without * were called inactive; i = inactive; ? = inconclusive; nt = not tested or not shown; & = joins results of further samples.

The first 2 records, ahead of the listing:
SMILES	ALR H2O2 inh	MLL AF4-AF9 inh	E coli growth	FGF22 binding	rRNA inh HTS	rRNA inh HTS OD600	rRNA inh HTS RFP	Vif A3G	HNF4A DNA FP
C[C@@H]1CN([C@@H](C)CO)C(=O)c2cc(NC(=O)Nc3ccc(F)cc3)ccc2O[C@@H](C)CCCCO[C@H]1CN(C)C	nt	2.0	nt	i	-2	7	-2.7	nt	nt
CCOC(=O)C1CCCc2c1[nH]c1ccc(Cl)cc21 (stereo not drawn)	15	2.2	0.65	i	-19	-17	-3.0	nt	-1.9

This part in full, previewed entries included:
SMILES	ALR H2O2 inh	MLL AF4-AF9 inh	E coli growth	FGF22 binding	rRNA inh HTS	rRNA inh HTS OD600	rRNA inh HTS RFP	Vif A3G	HNF4A DNA FP
C[C@@H]1CN([C@@H](C)CO)C(=O)c2cc(NC(=O)Nc3ccc(F)cc3)ccc2O[C@@H](C)CCCCO[C@H]1CN(C)C	nt	2.0	nt	i	-2	7	-2.7	nt	nt
CCOC(=O)C1CCCc2c1[nH]c1ccc(Cl)cc21 (stereo not drawn)	15	2.2	0.65	i	-19	-17	-3.0	nt	-1.9
C[C@H](CO)N1C[C@H](C)[C@@H](CN(C)C(=O)Nc2ccc3c(c2)OCO3)Oc2c(NC(=O)Nc3ccccc3)cccc2C1=O	nt	3.0&3.6	0.73	i	-4&4	-1&-14	-0.2&0.3	-3%	-1.2
CC1CCN(S(=O)(=O)c2ccc(C(=O)Nc3nnc(-c4ccncc4)o3)cc2)CC1	nt	-2.4	0.67	i	-55	-81	-21	-11%	-1.2
CCOC(=O)c1ccc(N2C(=O)CC(N3CCN(C(=O)c4ccccc4)CC3)C2=O)cc1 (stereo not drawn)	-6	-0.7	0.67	i	-1	-1	-0.1	-3%	1.8
Cc1cccc(-c2nc(CS(=O)CC(=O)NCc3cccs3)c(C)o2)c1 (stereo not drawn)	nt	-2.3	0.74	i	-1	-7	1.4	0%	1.6
CCOC(=O)C1CCN(Cc2ccc(F)c(Br)c2)CC1	-1	nt	0.69	nt	nt	nt	nt	4%	-0.4
O=C(Nc1ccccc1)N1CCCC1	-5	nt	0.7	nt	4	8	-0.2	5%	2.0
COc1ccc(C2(C)NC(=O)N(CC(=O)NCC(=O)Nc3ccc(F)c(F)c3F)C2=O)cc1OC (stereo not drawn)	12	-7.0	0.72	i	18	21	1.9	-4%	2.3
C[C@@H]1CN([C@@H](C)CO)C(=O)c2cc(NC(=O)CCN3CCOCC3)ccc2O[C@@H]1CN(C)Cc1ccccc1	nt	-0.8	nt	i	-1	5	-2.1	nt	nt
CN1C(=O)/C(=C/c2cccc([N+](=O)[O-])c2)C(=O)N1c1ccccc1	98*	0.8	0.63	i	-2	3	-0.5	nt	3.4
O=C(N/C(=C/c1ccco1)C(=O)N1CCOCC1)c1ccc([N+](=O)[O-])cc1	nt	-3.1	0.74	i	19	23	8.1	nt	-3.8
COC(=O)CCN(Cc1ccccc1)S(=O)(=O)c1ccccc1Br	nt	-4.1	0.69	i	-9	-46	-6.3	-1%	0.1
CC1(C(=O)NS(=O)(=O)c2ccc(Br)cc2)CCN1C(=O)CCc1ccccc1 (stereo not drawn)	nt	-2.0	nt	i	9	17	0.2	nt	4.7
O=C(COc1coc(CN2CCN(c3ccccc3)CC2)cc1=O)NC1CCCCC1	nt	-2.7	0.65	i	1	5	-1.3	0%	3.5
Cc1ccccc1Oc1cc(NC(=O)CCCn2nc(C)c([N+](=O)[O-])c2C)cc([N+](=O)[O-])c1	-4	nt	0.68	nt	nt	nt	nt	-1%	3.3
O=[N+]([O-])c1ccc(C[n+]2cccc3ccc4cccnc4c32)cc1	-3	1.5	0.67	i	-17	-19	-1.5	4%	0.9
CCCOC(=O)CSC1=C(C#N)C(c2ccccc2OC)C(C#N)C(=O)N1 (stereo not drawn)	43	nt	0.69	nt	nt	nt	nt	-4%	-0.7
Cc1c(C(=O)NCCC#N)sc(=O)n1Cc1ccc(F)cc1	nt	-1.7	nt	i	0	11	-4.6	nt	-0.5
CCCN1CNC(=S)N(CC2CCCO2)C1 (stereo not drawn)	-15	-2.5	0.68	i	8	16	1.1	3%	1.0
COc1ccc(S(=O)(=O)N(C)C[C@H]2OCCCC[C@@H](C)Oc3ccc(NC(=O)NC(C)C)cc3C(=O)N([C@@H](C)CO)C[C@@H]2C)cc1	nt	-1.2	nt	i	-10	-9	3.3	nt	nt
O=C(Nc1c(-c2ccccc2)nc2ccccn12)c1ccco1	12	nt	0.68	nt	nt	nt	nt	-3%	2.8
COc1cccc(-c2noc(CCC(=O)Nc3cccnc3)n2)c1	4	nt	0.77	nt	nt	nt	nt	-3%	-1.1
O=C(NCc1ccccc1)N1CCC(Cc2ccccc2)CC1	-14	-1.4	0.68	i	2	0	-0.8	-4%	3.2
CCOC(=O)CCCSc1nc2sc3c(c2c(=O)[nH]1)CCC3	-1	nt	0.69	nt	nt	nt	nt	-3%	-1.5

Next section.
SMILES	ALR H2O2 inh	MLL AF4-AF9 inh	E coli growth	FGF22 binding	rRNA inh HTS	rRNA inh HTS OD600	rRNA inh HTS RFP	Vif A3G	HNF4A DNA FP
COc1ccc(NCc2nnc(SCC(=O)NCc3ccccc3)n2-c2ccccc2OC)cc1	25	nt	0.74	nt	0	-11	-1.0	-1%	-0.5
O=C(C(=Cc1ccc(F)cc1)C(=O)c1ccccc1)c1ccccc1	nt	7.6	nt	i	-38	-44	-13	nt	-2.6
C[C@@H]1CN([C@@H](C)CO)C(=O)c2cc(NC(=O)Cc3cn(C)c4ccccc34)ccc2O[C@@H]1CN(C)Cc1ccc(C(=O)O)cc1	nt	1.2	nt	i	3	12	-0.3	nt	nt
Cc1nc(N2CCN(C(=O)c3ccco3)CC2)c(C#N)c2c1CCCC2	2	2.2	0.64	i	2	1	0.6	nt	-2.7
Cc1ccc(NS(=O)(=O)c2cc(C(=O)NCc3ccccn3)ccc2Cl)cc1	0	-0.5	0.67	i	-9	-5	-2.7	-7%	-2.4
Cc1cc(NC(=O)c2ccc3c(c2)C(=O)N(C2CCCCC2)C3=O)no1	nt	nt	0.71	nt	nt	nt	nt	-4%	-1.1
COc1cc(-c2noc(C)c2C(=O)NCc2ccc3c(c2)OCO3)cc(OC)c1OC	1	-2.5	0.7	i	16	8	2.3	nt	1.2
C[C@@H]1CCCCO[C@@H](CN(C)S(=O)(=O)c2cn(C)cn2)[C@@H](C)CN([C@@H](C)CO)C(=O)c2cc(NS(=O)(=O)c3ccc(Cl)cc3)ccc2O1	nt	-14	nt	i	1	-3	-1.1	nt	nt
CC(C)(C)NC(=O)COC(=O)Cc1ccc(Cl)cc1	-7	nt	0.63	nt	nt	nt	nt	?	1.2
Cc1ccccc1CN1CCN(CC(=O)NCCCN2CCN(c3ccc(F)cc3)CC2)C1=O	43	nt	0.67	nt	nt	nt	nt	2%	-3.8
COc1cc(Nc2cccc[n+]2C)cc(OC)c1OC	-39	-3.6	0.68	i	14	23	4.3	-5%	-1.1
CCCCCCOC(=O)C(C#N)c1nc2ccccc2nc1N1CCOCC1 (stereo not drawn)	1	nt	0.73	nt	nt	nt	nt	0%	5.0
CCCN1CCC(N(C)CCc2ccc(OC)c(OC)c2)CC1	-16	nt	0.71	nt	nt	nt	nt	10%	-1.4
Cc1ccc(OCCOC(=O)C2CCN(S(=O)(=O)c3ccc(C)c(C)c3)CC2)cc1	-3	-2.4	0.71	i	2	2	-0.2	-2%	1.4
CCCc1cn(CC[C@H]2CC[C@@H](NC(=O)Cc3cccnc3)[C@@H](CO)O2)nn1	nt	0.6	nt	i	2	2	0.4	nt	nt
COc1cccc(NC(=O)N2C[C@H](O)COC[C@@H]3O[C@H](CC(=O)NC4Cc5ccccc5C4)CC[C@H]32)c1	nt	-5.6	nt	i	-8	-21	0.0	nt	nt
COCCN1C=C2C(=O)C(C)(OC(=O)CCc3ccccc3)C(=O)C=C2C=C1c1ccc(C#N)cc1 (stereo not drawn)	-26	-8.0	0.67	i	10	10	-3.0	nt	-2.3
CCN(CC)CCNc1nc(-n2nc(C)cc2C)nc2sc3c(c12)CC(C)(C)OC3	-11	2.4	0.67	i	-13	-12	3.5	-4%	4.7
COc1ccc(Cc2nn3c(-c4ccccc4Br)nnc3s2)cc1	0	nt	0.63	nt	-14	-28	-2.0	2%	-1.5
CC(=O)N(C)C[C@@H]1[C@@H](c2ccccc2)[C@H](CO)N1C(=O)C1CC1	nt	-1.4	nt	i	3	4	-1.1	nt	nt
O=C(O)c1ccc2c(c1)ncn2C1CCCC1	3	-1.9	0.68	i	2	1	-8.7	nt	-1.4
COc1ccc(C(=O)NCC(c2cccnc2)N2CCN(c3ccccc3)CC2)cc1OC (stereo not drawn)	98*	5.2	0.75	i	-2	-4	0.3	0%	4.1
CNc1nc(N/N=C/c2cc3c(cc2[N+](=O)[O-])OCO3)nc(Nc2ccccc2)n1	2	2.2	nt	i	13	7	1.7	-13%	3.6
COc1ccc(-c2n[nH]c(C)c2-c2ccc(Cl)cc2)c(O)c1	21	nt	0.7	nt	nt	nt	nt	3%	-1.3
CCNc1nc(NC(C)C)nc(OCCOC(=O)c2ccccc2)n1	nt	nt	0.66	nt	nt	nt	nt	?	0.7

Later entries.
SMILES	ALR H2O2 inh	MLL AF4-AF9 inh	E coli growth	FGF22 binding	rRNA inh HTS	rRNA inh HTS OD600	rRNA inh HTS RFP	Vif A3G	HNF4A DNA FP
COc1ccc2c(Cn3cnc4cc([N+](=O)[O-])ccc4c3=O)cc(=O)oc2c1	nt	nt	0.67	nt	nt	nt	nt	20%	0.0
COc1ccccc1C#Cc1ccc2c(c1)O[C@H](CN(C)Cc1cncnc1)[C@@H](C)CN([C@H](C)CO)S2(=O)=O	nt	0.0	nt	i	-12	-5	4.8	nt	nt
CC1CCC(NC(=O)c2cccn2C)CC1 (stereo not drawn)	nt	-1.9	0.7	i	6	5	-0.9	10%	4.8
CN(NC(=O)Nc1ccc(Cl)cc1)c1c(Cl)c(Cl)nn1C	0	-1.1	0.7	i	8	13	3.9	-3%	3.3
Cc1c([N+](=O)[O-])c([N+](=O)[O-])nn1CC(=O)N1CCOCC1	nt	-0.8	0.7	nt	25	12	2.1	-4%	0.9
CC(=O)Nc1ccc(-c2ccnc3c2CC(C)(C(=O)Nc2ccccc2)O3)cc1 (stereo not drawn)	nt	2.2	nt	i	2	-3	-2.7	nt	-1.0
CO[C@@H]1CN(C)C(=O)c2ccc(NC(=O)Nc3cccc(Cl)c3)cc2OC[C@H](C)NC[C@@H]1C	nt	8.1	nt	i	-4&-4	-4&-1	4.9&5.5	nt	nt
Cc1cc2c(c(=O)n1CCN(C)C)C(c1ccc(Br)cc1)C(C#N)=C(N)O2 (stereo not drawn)	-9	nt	0.75	nt	11	12	-0.5	-13%	-0.3
CC[C@]12c3[nH]c4ccc(Cl)cc4c3CCN1C(=O)[C@@H](CC(=O)NCC13CC4CC(CC(C4)C1)C3)C[C@@H]2C(=O)N1CCN(C(=O)C2CC2)CC1	nt	-3.7	0.7	i	11	20	-0.4	-4%	-1.1
COC(=O)c1cc2ccsc2n1CC(=O)Nc1ccc(N(C)C)cc1	16	nt	0.67	nt	nt	nt	nt	7%	3.2
COC(=O)c1ccc(CNC(=O)COC(=O)Cc2ccsc2)cc1	-5	0.5	0.63	nt	4	4	-1.9	0%	1.1
COc1ccc(C(=O)NCc2cccs2)cc1S(=O)(=O)N1CCOCC1	-7	-3.9	0.7	i	0	4	2.7	?	-0.1
Cc1ccc(C(=O)NC(=S)Nc2ccc3c(c2)OCCO3)c(C)c1	-19	nt	0.72	nt	nt	nt	nt	-7%	-3.4
COc1ccc(/C=N\Nc2ccccc2[N+](=O)[O-])c(C(=O)O)c1OC	nt	6.4	nt	i	-9	4	-3.1	-7%	3.3

A portion of the library; the hit share may differ from the screen's.
